HPGD inh = HPGD (human) dehydrogenase inhibition. purified HPGD, NADH fluorescence kinetic, PGE2 substrate. Potency, µM, without a hit: at the highest dose activity change, negative = inhibition, hits mostly inhibitors. 150,000 tested, 4.3% active. AID 894; active = well fitted inhibition curve with a large enough effect (not every such curve was filed as active); inconclusive = small, poorly fitted or top-dose-only effect, or another doubt; inactive = no such curve, though single readings can be large or run the other way;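 further: top concentration of the series not given in the record; plate controls included wells without enzyme; inactives centre near -10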
Target sequence (P15428 whole entry, looked up): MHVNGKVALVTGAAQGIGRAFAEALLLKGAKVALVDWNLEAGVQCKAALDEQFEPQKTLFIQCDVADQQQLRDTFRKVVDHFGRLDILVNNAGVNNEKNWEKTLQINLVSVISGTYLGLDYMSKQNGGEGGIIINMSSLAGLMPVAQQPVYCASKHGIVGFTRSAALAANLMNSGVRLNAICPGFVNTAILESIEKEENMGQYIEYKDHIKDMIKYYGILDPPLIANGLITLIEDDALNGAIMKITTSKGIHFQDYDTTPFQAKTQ
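20 nM HPGD preincubated 15 min at room temperature with compound in 50 mM Tris-HCl pH 8, 0.01% Tween 20. Started with 1 mM NAD+ and 30 uM prostaglandin E2; NADH fluorescence (360/450 nm) read 5 times over 30-s intervals, last minus first.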
* marks the source's active call; other numbers are inactive results; ? = inconclusive. On the % scale 0 is the no-effect control and ±100 the full control effect; potency means the concentration at half of the fitted maximal effect.

HPGD inh	structure
?	CCOC(=O)C1=C(O)C(=O)N(c2ccc(S(N)(=O)=O)cc2)C1c1ccc(Cl)cc1 (stereo not drawn)
-10%	COc1cc(OC)c2ccc(=O)oc2c1C(CCN1CCOCC1)c1ccc2c(c1)OCO2 (stereo not drawn)
?	CN(C)c1oc(-c2ccc(OCc3ccccc3)cc2)nc1C#N
?	O=C(NC1CCCCC1)N(CCN1CCOCC1)Cc1cc2cc3c(cc2[nH]c1=O)OCCO3
-19%	CCCn1c(N)c(C(c2ccc(C(=O)OC)cc2)N2CCN(c3ccccc3)CC2)c(=O)[nH]c1=O (stereo not drawn)
-12%	COC(=O)c1ccc(/C=N\n2c(C)nnc2C)cc1
-12%	CC1CC2=C(C(=O)O1)C(c1ccccc1)Nc1ccccc1N2 (stereo not drawn)
-8%	Cc1ccc(CNC(=O)c2cc3c(=O)n(C)c4ccccc4c3n2C)cc1
-6%	CCn1c2ccc(Cl)cc2c2nc3ccccc3nc21
?	c1ccc(Nc2nc(-c3ccncc3)nc3ccccc23)cc1
-22%	CCCn1nnc(NC(=O)c2ccc(-c3cccc(Cl)c3)o2)n1
-24%	O=C(NCC1CCCO1)c1ccc(S(=O)(=O)N2CCC(c3nc4ccc(Cl)cc4[nH]3)CC2)cc1 (stereo not drawn)
?	COc1ccc(NC(=S)NCc2ccc3c(c2)cc(C)n3C)cc1
4µM*	Cc1ccc(C(=O)OCC2OC3OC(C)(C)OC3C2O)cc1 (stereo not drawn)
-5%	Cc1cc(C)c(S(=O)(=O)N2CCCOC2CNC(=O)C(=O)NCc2ccco2)c(C)c1 (stereo not drawn)
-9%	c1ccc(CN2CN=C(Nc3nc4ccccc4s3)NC2)cc1

Entries listed above shown as hits in HPGD inh.
HPGD inh	structure
4µM*	Cc1ccc(C(=O)OCC2OC3OC(C)(C)OC3C2O)cc1 (stereo not drawn)

Other compounds:
HPGD inh	structure
-3%	CCOC(=O)c1ccc(S(=O)(=O)NC2CCCCCCC2)n1C
-21%	Cc1noc(C)c1CSc1nnc(C)c(=O)[nH]1
-9%	CC1(OC(=O)c2ccco2)C(=O)C=C2C=C(C3CC3)OC=C2C1=O (stereo not drawn)
-15%	Cc1cc(C)c2nc(NC(=O)c3ccc4c(=O)n5c(nc4c3)CCCCC5)sc2c1
-8%	COc1cccc(C(=O)CSc2nc3ccccc3n2CC(=O)N(C(C)C)C(C)C)c1
-4%	Cc1c(N=C2NC(=O)C(CC(=O)Nc3ccccc3)S2)c(=O)n(-c2ccccc2)n1C (stereo not drawn)
-7%	O=c1c(CCc2ccccc2)nc2cnc(Oc3ccccc3)nc2n1C[C@H]1CCCO1
-9%	COc1cccc(COc2nc3c(c(=O)n(C)c(=O)n3C)n2C)c1
-10%	COc1ccc(S(=O)(=O)N2CCC(C(=O)NCC(c3cccs3)N(C)C)CC2)cc1 (stereo not drawn)
-16%	Cc1ccc(-n2nnnc2SCC(=O)N2CCc3ccccc3C2)cc1
3%	Cc1ccc(-n2c(CSc3nc(C)cc(C)n3)nnc2SCC(=O)N2CCCC2)cc1
?	Oc1ccc(O)c2c(O)cccc12
-4%	CCOC(=O)N1CCN(C(=O)C2CCC(=O)N2C(C)C)CC1 (stereo not drawn)
-3%	CC(C)CN1CCCC2(CCN(C(=O)c3ccco3)CC2)C1
-21%	O=[n+]1c2c(n([O-])c3ccccc31)CCC2
0%	COC(=O)[C@@]1(Cc2ccc(F)cc2)[C@H]2c3cc(C(=O)N(C)C)n(CCF)c3C[C@H]2CN1C(=O)c1ccccc1
-12%	O=c1oc2cc(OCc3c(F)cccc3Cl)ccc2cc1-c1ccccn1
-14%	CC1Cc2cc(/C(O)=C3\C(=O)C(=O)N(CCN(C)C)C3c3ccccc3F)ccc2O1 (stereo not drawn)
-8%	COc1cc(OC)c(NC(=O)CCCn2c(=O)oc3ccccc32)cc1Cl
-7%	CCOC(=O)N1CCN(S(=O)(=O)c2cc(Br)cnc2N)CC1
-2%	COc1ccc2[nH]c3cc4c(=O)c5cc(OC)ccc5[nH]c4cc3c(=O)c2c1
-1%	COc1ccc(C(c2sc3nc(C)nn3c2O)N2CCN(Cc3ccccc3)CC2)cc1OC (stereo not drawn)
-9%	CCc1ccc(-c2nc(CN3CCC(C(=O)NCc4ccccc4OC)CC3)c(C)o2)cc1
-14%	Cc1cc(C(=O)Nc2ccc(S(=O)(=O)Nc3nccs3)cc2)c(C)o1

2 entries from above, bar-delimited:
structure | HPGD inh
COc1cc(OC)c(NC(=O)CCCn2c(=O)oc3ccccc32)cc1Cl | -8%
CCOC(=O)N1CCN(S(=O)(=O)c2cc(Br)cnc2N)CC1 | -7%

Next part
HPGD inh	structure
-16%	COc1cccc(C(=O)N(Cc2nc(-c3ccc(C)cc3)no2)C(C)C)c1
-5%	Cn1nc(OCc2ccccc2)ccc1=O
?	O=C(NCc1n[nH]c(=S)n1-c1ccc(F)cc1)c1ccco1
-14%	Cc1ccc(C2=N/C(=C\c3ccc(OS(=O)(=O)c4ccc(C)cc4)cc3)C(=O)O2)cc1
-18%	O=C(CN1C(=O)CC(c2ccco2)Sc2ccccc21)Nc1ccccc1F (stereo not drawn)
-26%	Cc1cccc(Nc2nnc(-c3ccc(N4CCOCC4)c([N+](=O)[O-])c3)c3ccccc23)c1
-17%	Cc1ccn2cc(-c3ccc(NC(=O)c4ccco4)cc3)nc2c1
?	CN(C)C=Nc1ccc2nn(-c3ccccc3)nc2c1
-2%	COc1ccc(N(CC(=O)NCCC2=CCCCC2)S(C)(=O)=O)cc1OC
1%	CC(C)(C)NCc1cc(Cl)ccc1OCc1cccs1
-11%	COc1cc(S(=O)(=O)N2CCCCCC2)c(OC)cc1Br
-29%	CCN(CC)CCn1c(-c2ccccc2)nc2c(NC3CCCCC3)nc(C)nc21
28µM*	O=C(/C=C/N1CCOCC1)c1ccc(-c2ccccc2)cc1
?	O=C1c2cccnc2C(=O)N1Cc1ccc2c(c1)OCO2
-12%	CC(=O)c1cccc(NC(=O)C2CC(c3ccc(F)cc3)=NO2)c1 (stereo not drawn)
-3%	CCOC(=O)c1[nH]c(C)c(/C(O)=C2\C(=O)C(=O)N(CCN(C)C)C2c2ccncc2)c1C (stereo not drawn)

Reprinted from the part before: 7 entries, then new ones.
HPGD inh	structure
1%	CC(C)(C)NCc1cc(Cl)ccc1OCc1cccs1
-11%	COc1cc(S(=O)(=O)N2CCCCCC2)c(OC)cc1Br
-29%	CCN(CC)CCn1c(-c2ccccc2)nc2c(NC3CCCCC3)nc(C)nc21
28µM*	O=C(/C=C/N1CCOCC1)c1ccc(-c2ccccc2)cc1
?	O=C1c2cccnc2C(=O)N1Cc1ccc2c(c1)OCO2
-12%	CC(=O)c1cccc(NC(=O)C2CC(c3ccc(F)cc3)=NO2)c1 (stereo not drawn)
-3%	CCOC(=O)c1[nH]c(C)c(/C(O)=C2\C(=O)C(=O)N(CCN(C)C)C2c2ccncc2)c1C (stereo not drawn)
-11%	CCCn1nnnc1SCC(=O)N1CCN(C(=O)c2ccco2)CC1
-15%	Cc1ccc(-c2noc(CC(c3ccccc3)c3ccccc3)n2)cc1
-5%	Cc1nn(C)cc1CNC(=O)c1cccc(Br)c1
-13%	Cc1nn(-c2ccccc2)c2c1C(c1ccc(Cl)cc1)N(c1ccccc1)C(=O)N2 (stereo not drawn)
-7%	Cc1ccc(C2NC(=O)NC(O)(C(F)(F)F)C2C(=O)c2cccs2)o1 (stereo not drawn)
-26%	COC(=O)c1cc(CSc2nnc(NC3CCCCC3)s2)oc1C
14µM*	COC(=O)CCC(=O)Nc1sc(C)c(C)c1C(N)=O
-3%	CCc1cccc(CC)c1NC(=O)NC1CCCCC1
-11%	Cc1ccc(/C=N/NC(=O)c2cccs2)cc1[N+](=O)[O-]
-15%	O=C1CCCC2=C1C(c1ccc(OS(=O)(=O)c3ccc(Cl)cc3)cc1)C1=C(CCCC1=O)O2
-13%	COc1ccc2c(c1)O[C@@H](c1ccc3c(c1)OCO3)[C@H](OC(=O)NS(=O)(=O)c1ccc(F)cc1)C2=O
-9%	Cc1ccc(CC(=O)NCCCc2ccccc2)cc1
-15%	NC(=O)CN1C(=O)C(O)(CC(=O)c2ccccc2O)c2ccccc21 (stereo not drawn)
0%	CCCC1O[C@@H]2CC3C4CCC5=CC(=O)C=C[C@]5(C)C4C(OC(C)=O)C[C@]3(C)[C@]2(C(=O)COC(C)=O)O1 (stereo partly drawn)
-25%	Cc1nnc(SCC(=O)N/N=C/c2cc(Cl)c(O)c(Cl)c2)s1
-25%	CCC(=O)Nc1nn(C)c2nc3c(C)cccc3cc12
-10%	O=C(Nc1ccccc1)Nc1ccc(F)c([N+](=O)[O-])c1
-6%	O=S(=O)(Nc1ccncc1)c1ccccc1
?	CCCCOc1ccc(CNn2c(C)nc3ccccc3c2=O)cc1
0%	COc1ccc(NC(=O)CCN2CCCCCC2)c(OC)c1
?	CCS(=O)(=O)Nc1ccc(C2=NN(C(=S)Nc3ccccc3)C(c3ccco3)C2)cc1 (stereo not drawn)
-2%	CC(=O)Nc1ccccc1OCC(=O)NC(C)c1ccc(F)cc1 (stereo not drawn)
-7%	CCOc1cccc(/C(O)=C2/C(=O)C(=O)N(CCN3CCOCC3)C2c2cccnc2)c1 (stereo not drawn)
-2%	CC1(C)N=C(/C=N/O)C=[N+]1[O-]
-6%	c1ccc(-c2cnc(-c3ccccc3)nc2)cc1
-1%	O=C(NCc1ccccc1)c1ccccc1OCC(=O)N1CCCCC1
-14%	Cc1noc(C)c1S(=O)(=O)N1CCC(C(=O)N2CCC(N3CCCCC3)CC2)CC1
-7%	CCN(CC)S(=O)(=O)c1cc(C(=O)Oc2cccc(-c3cnc4ccccc4n3)c2)ccc1OC
0%	Cc1cccc(NC(=O)Cn2nnc(-c3cccs3)n2)c1C
14µM*	Cc1ccc(/C=N\NC(=O)C2COc3cc4ccccc4cc3O2)o1 (stereo not drawn)
-12%	CC(=O)c1c(C)[nH]c(C(=O)Nc2ccc(C)cn2)c1C
-14%	Nc1cc(N)nc(SCC(=O)NCC2CCCO2)n1 (stereo not drawn)
-12%	CCOC(=O)N1CCN(c2ccc(F)cc2[N+](=O)[O-])CC1
-14%	CN(C)S(=O)(=O)Oc1ccsc1C(=O)Nc1ccccc1Cl
-1%	Cc1cc(C(=O)OCC(=O)N2CCc3ccccc32)c(C)o1
-20%	COc1ccc(-n2c(=O)cc(N3CCc4ccccc43)[nH]c2=O)cc1
-20%	CCCC(=O)Nc1nc(C)c(-c2csc(Nc3cc(OC)ccc3OC)n2)s1
-12%	CCOC(=O)Nc1ccc(NS(=O)(=O)c2ccc(C)cc2)cc1
-17%	O=C(Nc1scc(-c2cccs2)c1C(=O)O)c1cccs1
-21%	COc1ccc(C(=S)N2CCOCC2)cc1OC(=O)c1cc([N+](=O)[O-])c(C)c([N+](=O)[O-])c1

An excerpt of the results above, for reference:
HPGD inh	structure
?	CCOC(=O)C1=C(O)C(=O)N(c2ccc(S(N)(=O)=O)cc2)C1c1ccc(Cl)cc1 (stereo not drawn)
-10%	COc1cc(OC)c2ccc(=O)oc2c1C(CCN1CCOCC1)c1ccc2c(c1)OCO2 (stereo not drawn)

Next part.
HPGD inh	structure
-12%	CCOC(=O)c1c(C)[nH]c(C(=O)COC(=O)CNC(=O)c2ccc(Cl)cc2)c1C
-16%	COc1cccc(NC(=O)CSc2nc3c(c(=O)n2C)SC(C)C3)c1 (stereo not drawn)
16µM*	C=CCNC(=O)c1csc(-c2ccccc2)n1
-6%	CC(C)(C)c1cc(C(=O)N/N=C/c2ccc(F)cc2)n(-c2ccccc2)n1
-21%	COc1ccc(/C=C/C(=O)C2C(=O)C=C(C)OC2=O)cc1O (stereo not drawn)
-15%	COc1ccc(NC(=O)COC(=O)c2c3c(nc4ccccc24)CCCC3)cc1Cl
4%	CCOC(=O)C(O)(NC(=O)c1cccnc1)C(F)(F)F (stereo not drawn)
-15%	CCC(C)(C)NC(=O)c1ccc2c(c1)N(CC(=O)OC)C(=O)C(C)(C)O2
?	CC1(C)Oc2ccc3ccc(=O)oc3c2C(N2CCCCC2)C1O (stereo not drawn)
16µM*	COC1=C(Nc2ccc(OC)cc2)C(=O)c2ccccc2C1=O
1%	Cc1cccc(C(=O)NCc2nnc(SCC(=O)NC(C)c3ccccc3)n2C)c1 (stereo not drawn)
-22%	COc1ccccc1OCC(=O)Nc1nnc(-c2ccco2)s1
-9%	O=[N+]([O-])c1ccc(N2CCCC2)cc1NC(c1ccccc1)c1ccccc1
11%	O=C(NC1(C(F)(F)F)Oc2ccccc2O1)N1CCCC1
-7%	CN1CCCCCC1=Nc1ccccc1C#N
-15%	Cc1ccc(Nc2c(-c3ccc(N4CCOCC4)cc3)nc3ncccn23)c(C)c1
-11%	Cc1nnc(SCC(=O)Nc2sc3c(c2C(=O)c2ccccc2)CCCC3)s1
0%	O=C(COC(=O)CCc1ccc(S(=O)(=O)N2CCOCC2)cc1)NC1CCCCCC1
-7%	CN(C)CCOCCOc1ccccc1-c1ccccc1
-18%	O=C(NNC(=S)NC1CCCCC1)c1cccc(S(=O)(=O)Nc2ccccc2Cl)c1
-7%	C=CCn1c(N)cc(=O)nc1SCC(=O)N1CCN(c2ccc(F)cc2)CC1
-3%	CC(C)CC(c1nnnn1CC1CCCO1)N1CCN(Cc2ccc3c(c2)OCO3)CC1 (stereo not drawn)
-1%	O=C1c2cccc3cccc(c23)C(=O)N1CCN1CCN(C(=S)Nc2ccc(F)cc2)CC1
-13%	Cc1ccc(-c2c(C(=O)N(C)Cc3ccccc3)oc(=O)c3ccccc23)cc1
-7%	COC(=O)CSc1ccc(S(=O)(=O)N2CCC(C)CC2)cc1[N+](=O)[O-]
-30%	COC(=O)c1[nH]c2ccc(F)cc2c1NC(=O)CCN1CCN(C(=O)c2ccco2)CC1

Not all compounds are listed (hit frequency here may not be typical).
